# Screening data (PubChem)
# BJeLR lethal: kills HRASV12-expressing BJeLR cells. inhibition, % (test concentration not listed). 300,000 compounds, 0.17% hits. BJeLR (HRASV12) viability, CellTiter-Glo ATP luminescence, 48 h; reference of the scale not given here. AID 1554;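 active = replicate mean above 50%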;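 also: 50 nL library stock added to about 25 µL; numbers are from one replicate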
# PrP UTR inh: inhibition of PrP 5' UTR reporter expression. cell-based PrP 5' UTR mRNA reporter, plate reader. inhibition, % (test concentration not listed). 340,000 compounds, 0.35% hits;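 active = every replicate at 50% or more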;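 also: 0 = median of the neutral control wells; tested in H4 reporter cells; numbers are from one replicate; inactives centre near -14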
# Mtb hypoxia rep: inhibitors of hypoxia-regulated fluorescent reporter in Mycobacterium tuberculosis; M. tuberculosis hypoxia-regulated fluorescent reporter, fluorescence; fluorescence inhibition, % (test concentration not listed); 300,000 compounds, 0.1% hits; AID 1159583;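 active = 35 to 45% if threefold the growth effect, above 45% if 1.5-fold the growth effect; inactive = the rest, general growth blockers included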;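 also: wells of about 50 µL received 100 nL stock; 0% = vehicle wells and 100% = reference inhibitor wells; whole bacteria with a GFP reporter of the hypoxia response; strong numbers were not always called active; many hits fall short of the cut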
# Sa RN4220 lethal: kills Staphylococcus aureus RN4220. S. aureus RN4220 growth, OD600, 16 h. inhibition, % (test concentration not listed). 330,000 compounds, 0.33% hits. AID 1259311;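 active = z-score of -3 or lower and OD600 up to 0.18 on both plates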;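 also: plate controls were untreated cells for no effect and reference antibiotic for full effect; stock transfer was 100 nL into about 80 µL; one replicate is shown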
# Autofluor counter: compound fluorescence in toxin protease inhibitor counterscreen. 360,000 compounds, 3.1% hits. compound autofluorescence counterscreen, microsphere flow cytometry; active compounds read high. AID 624483. fluorescence intensity (concentration not given with the values);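 active = at least 3 SD above the mean of all compounds, about 16000 in these data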;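 also: 100 nL of 1 mM stock went into each well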
# Sa ugtP lethal: compounds lethal to S. aureus RN4220 ugtP deletion mutant | OD600 growth, 16 h; some inactives read as strong as hits | growth inhibition, % (concentration not given with the values) | 330,000 compounds, 0.54% hits;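 active = z-score under -3 and OD600 up to 0.15 on both plates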;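 also: plate controls were untreated wells for no effect and antibiotic for full effect; wells of about 80 µL received 100 nL stock; the first replicate is given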
# Mtb hypoxia rep growth: recorded beside Mtb hypoxia rep, whose call it bears; growth inhibition, %; measured here: M. tuberculosis growth (absorbance);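 0% = vehicle and 100% = reference antibiotic; read after six days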
# Active calls of the source: *; . = no result given.
SMILES,BJeLR lethal,PrP UTR inh,Mtb hypoxia rep,Mtb hypoxia rep growth,Sa RN4220 lethal,Autofluor counter,Sa ugtP lethal
CC1CCN(CC(=O)Nc2nn(-c3ccccc3)nc2C(N)=O)CC1,2.0,-5.1,11.6,3.2,-2.7,2054,-0.3
O=C(COC(=O)c1cc(S(=O)(=O)N2CCOCC2)ccc1O)NCCc1ccccc1,9.8,-17.5,.,.,-2.0,3745,7.9
CN1CCN(c2ccccc2NC(=O)c2ccc(-c3ccccc3)cc2)CC1,-7.8,-28.3,.,.,-3.5,6109,-6.1
CN(C)CCN(Cc1ccccc1)C(=O)[C@H](Cc1ccccc1)N1C(=O)c2ccccc2C1=O,-7.0,-19.7,4.0,-4.8,-0.3,3639,8.8
FC(F)(F)c1cc(-c2ccco2)nc(-n2nnc3ccccc32)n1,-20.7,-31.3,3.3,-0.4,4.1,15373,7.5
CCCOc1ccccc1NS(=O)(=O)c1ccc2[nH]c(=O)[nH]c2c1,-6.1,-23.5,7.1,-5.1,0.0,5745,-2.2
CCOc1ccc(Cl)cc1S(=O)(=O)N1CCC(C(=O)NCc2cccnc2)CC1,10.6,-18.3,-1.9,4.1,1.4,4862,-0.7
O=C(NN=Cc1cc(Br)c(Br)o1)c1cc2ccccc2o1,.,.,5.4,5.7,0.7,.,-12.5
Cc1cc(C)cc(NC(=O)CCC(=O)Nc2nnc(C(F)(F)F)s2)c1,-6.6,-1.0,-0.2,3.5,7.3,4017,10.0
Nc1nnc2cc(Cl)ccc2n1,.,-4.5,13.8,8.4,0.2,2919,-1.3
Cc1cc(CSc2ccc(Cl)cc2)ccc1N,.,-13.5,12.1,9.8,-3.1,4142,3.4
CCN1C(=O)[C@H]2[C@@H](c3ccc(-c4ccccc4)cc3)N[C@@](CC(C)C)(C(=O)OC)[C@H]2C1=O,5.6,-9.2,7.3,2.4,-25.6,3745,12.1
CCN(CC)S(=O)(=O)c1ccc2[nH]c(=O)cc(C(=O)Nc3ccccc3N3CCCC3)c2c1,3.8,-7.9,.,.,.,4289,.
CN1C(=O)C(O)(c2sc(N)nc2-c2ccccc2)c2ccccc21 (centres undefined),-4.1,-13.4,.,.,2.0,4311,-6.0
COc1cc([N+](=O)[O-])ccc1NC(=O)Oc1ccc(NC(C)=O)cc1,-1.7,-40.4,.,.,.,4241,.
Cc1noc(C)c1COC(=O)C(c1ccccc1)c1ccccc1,-2.8,-21.1,10.1,5.9,1.3,5296,10.7
COc1ccc(-c2nnc(SCc3ncc(-c4ccccc4)o3)o2)cc1,4.4,-17.7,-3.6,1.5,3.3,9968,-19.2
Cc1ccc(N2C(=O)NC(NC(=O)C(C)(C)C)(C(F)(F)F)C2=O)cc1 (centres undefined),-0.8,-102.8,-10.3,0.6,-0.8,2437,5.1
O=C(CSc1ccc(-c2cccc([N+](=O)[O-])c2)nn1)N1CCCCCC1,5.1,-14.4,8.6,13.3,3.4,4113,11.3
COc1ccc(C2Nc3ccccc3C(=O)N2Cc2ccccc2)cc1Cn1nnc2ccccc21 (centres undefined),-6.1,-14.2,14.1,5.6,-2.8,6233,26.1
CCOC(=O)C1=CN(Cc2cccc(F)c2)S(=O)(=O)NC1CCc1ccccc1 (centres undefined),.,-14.6,-6.7,-3.6,-3.8,3798,-8.9
Cn1c(C(=O)N2CCCC(C(=O)NCc3ccc4c(c3)OCO4)C2)cc2sccc21 (centres undefined),-1.9,-12.6,7.4,13.2,-7.6,5410,4.7
CCc1nnc(NC(=O)CSc2nnc(-c3ccc(O)cc3)n2C)s1,-0.8,-7.3,3.7,5.5,4.6,3310,19.4
CCOC(=O)N/N=C(/C)c1cccc(-n2cnnn2)c1,2.0,-20.3,.,.,.,3532,.
CN1C(=S)N(c2ccccc2)C(=O)/C1=C/c1cccs1,5.2,-11.6,1.2,2.4,5.2,2140,9.3
CN1CCN(C(=O)CCc2ncc(C(F)(F)F)cc2Cl)CC1,-7.5,-36.3,1.1,5.9,2.3,2532,0.0
COC(=O)CC1c2cc(OC)c(OC)cc2CC(=O)c2cc(OC)c(OC)cc21 (centres undefined),-6.5,-9.5,-7.3,6.2,1.2,2391,-0.5
NC(=O)NCCN1CCN(c2ncc(C(F)(F)F)cc2Cl)CC1,2.1,-17.3,-2.9,-4.8,2.0,4313,4.4
CC(c1cccs1)N(Cc1ccco1)C(=S)Nc1ccccc1Cl (centres undefined),7.7,-8.4,-7.8,-7.2,17.7,4018,2.5
O=C(Cn1cnc2c(nnn2-c2cccc(Cl)c2)c1=O)N1CCCC1,5.0,-17.8,3.4,4.1,-1.8,15538,0.9
CC(=O)Nc1ccc(Oc2cc(NC(C)=O)cc([N+](=O)[O-])c2)cc1,-6.6,1.3,6.1,6.0,2.7,3581,6.0
COC(=O)c1ccc(CNS(=O)(=O)c2ccc3ccccc3c2)cc1,3.7,-26.6,2.4,-2.8,1.6,3934,-1.0
COc1ccc(CN(C(=O)CON=Cc2ccccc2)c2ccccc2C(=O)O)cc1,.,.,8.6,5.1,1.4,.,4.5
CC(=O)c1c(N2CCOCC2)nc(=S)n(-c2ccccc2)c1C,-13.7,-18.1,11.4,9.7,1.7,8386,0.9
CCOC(=O)c1nc(NN=Cc2ccccc2)sc1Br,.,.,10.3,7.0,-3.5,.,-17.2
Cc1cccc(N(CC(=O)Nc2ccccc2F)S(C)(=O)=O)c1,-1.2,-22.2,0.2,1.1,1.9,.,1.0
CS(=O)(=O)N1CCN(c2ccccc2NC(=O)c2ccco2)CC1,-6.3,-18.4,-4.7,-6.7,3.0,11032,0.0
COc1ccc(C=NNS(=O)(=O)c2ccc(Br)cc2)cc1COc1ccccc1[N+](=O)[O-],.,.,-3.4,3.4,18.9,.,11.5
NC(=O)C1(N2CCCCC2)CCN(CC(=O)Nc2ccc(Oc3ccccc3)cc2)CC1,5.8,-5.3,7.0,13.8,1.0,8251,2.1
Cc1ccc(SCc2cc(=O)[nH]c(N=C(N)Nc3cccc4ccccc34)n2)cc1,.,.,-10.5,-4.2,5.6,.,-12.1
Cc1ccc(O)c(C(=O)c2cc(C(=O)NCCc3ccccc3)c(=O)n(CCc3ccccc3)c2)c1,-20.3,-13.0,11.6,7.0,3.6,3523,-5.0
OC[C@H](O)[C@H](O)[C@@H](O)[C@@H](O)[C@@H]1SC(c2ccccc2)=NN1c1ccccc1,-4.1,-24.3,6.9,13.0,0.7,5197,7.4
Cc1ncc(CO)c(/C=N/NC(=O)c2ccccc2Br)c1O,-1.2,-25.0,.,.,.,2248,.
Cc1ccc(C(=O)Nc2ccc3c(c2)OCCO3)c(C)c1,8.9,70.8*,-1.5,9.5,1.3,3837,3.7
C=CCNC(=O)/C(=C\c1ccco1)NC(=O)c1ccco1,-0.7,-28.7,5.5,1.8,4.0,3567,11.0
CN(CC(=O)Nc1ccccc1Cl)CC(=O)N(C)c1c(N)n(Cc2ccccc2)c(=O)[nH]c1=O,.,-5.8,-24.5,-0.8,-3.0,4057,-1.9
Cc1ccc(Nc2cc(C)nc3nnnn23)cc1,1.6,-18.0,.,.,-3.1,2777,10.1
CCC(C)[C@H](NC(=O)[C@H](Cc1ccccc1)n1c(=O)[nH]c2ccccc2c1=O)C(=O)N1CCC[C@@H]1C(=O)O (some centres undefined),-15.6,5.8,.,.,2.2,5711,-15.8
CCOc1ccc(CN(CCC#N)C(=S)NC(=O)c2ccccc2)cc1,-1.4,-13.4,-7.6,-4.2,0.3,2038,14.0
O=C(c1ccc(Cl)cc1)N(Cc1ccccc1F)N1C(=O)CCCC1=O,8.7,-12.9,2.7,-1.7,3.8,3605,6.2
CCNS(=O)(=O)c1ccc2c(c1)n(C)c(=O)n2C,5.0,-7.1,7.0,7.7,3.5,22262*,-0.8
Cc1cccc2cc(C#N)c(SCC#N)nc12,-0.3,-13.2,12.2,-6.1,3.0,2506,2.5
C/C(=N\NC(=O)c1ccc(N2CCCC2=O)cc1)c1ccc(O)cc1O,-6.5,-7.6,.,.,.,4687,.
CCn1nc(C)c(C2C(C#N)=C(N)OC3=C2C(=O)CC(C)(C)C3)c1C (centres undefined),-5.8,-2.6,12.1,4.7,1.3,9686,4.6
Cc1ccc(OCC(=O)Nc2ccc(N3CCN(C(=O)c4ccc(C)cc4)CC3)cc2)cc1,1.4,-10.0,-1.3,-3.9,2.3,4043,0.8
COc1ccc(OC)c(S(=O)(=O)N2CCCC(C(=O)NCCN3CCOCC3)C2)c1 (centres undefined),-2.5,-14.9,9.9,-2.3,2.0,3658,10.5
COc1ccc(CCNC(=O)c2c(O)c3c([nH]c2=O)CCCC3)cc1OC,.,0.2,.,.,0.2,4188,1.4
Cc1nn(Cc2cccc(F)c2)c(C)c1NC(=O)c1ccc(COc2ccccc2Cl)cc1,-3.9,5.7,-10.7,9.7,-4.4,15956,-26.9
NNC(=O)Cn1nc2n(c1=O)-c1ccccc1SC2,-4.8,-19.3,6.9,-2.5,-0.6,4941,3.3
COc1ccc(-n2c(SCC(=O)O)nc3sc4c(c3c2=O)CCC4)cc1,-8.0,20.8,13.1,1.1,5.5,5457,11.9

# (listing goes on)
SMILES,BJeLR lethal,PrP UTR inh,Mtb hypoxia rep,Mtb hypoxia rep growth,Sa RN4220 lethal,Autofluor counter,Sa ugtP lethal
COc1ccc(-n2nc3c(c2NC(=O)COc2ccccc2)CS(=O)C3)cc1 (centres undefined),2.4,-2.0,9.8,3.9,1.4,4210,2.6
CCOC(=O)C1CCN(C(=O)Cn2nc(C)n3c(cc4cc(F)ccc43)c2=O)CC1,1.7,0.3,-3.8,-2.2,4.3,5668,5.4
Cc1cc(C(=O)Nc2ccc(Br)cc2)c2ccccc2n1,-2.2,-35.2,8.4,0.0,3.4,3251,1.4
O=C(CSc1nccn(-c2ccc(Br)cc2)c1=O)NCc1ccccc1,-4.2,10.7,.,.,.,5710,.
Cn1cccc1C(=O)NC(=O)COC(=O)c1ccc(S(C)(=O)=O)c([N+](=O)[O-])c1,.,12.1,2.2,9.8,-5.9,3874,-2.6
CCCC(=O)Nc1ccc(Cl)c(NC(=O)CC)c1,12.6,-9.7,.,.,-3.6,3058,-2.4
CC1CCN(CC(O)COc2ccc(OCC(O)CN3CCC(C)CC3)cc2)CC1 (centres undefined),-0.7,-12.2,8.9,6.5,4.2,3285,1.2
Cc1nn(CC(=O)O)c(C)c1NC(=O)c1cccs1,5.7,8.7,-8.2,5.4,-0.3,5516,1.0
CCN(CC)C(C)C(=O)NCC1(c2ccccc2)CCOCC1 (centres undefined),6.2,-21.0,12.2,8.7,4.4,4601,2.0
O=C(Nc1ccc(-c2cn3ccccc3n2)cc1)c1ccc(Cl)cc1,1.7,-19.5,.,.,2.4,4747,-14.6
CC(=O)NC1C(O)OC(CO)C(O)C1O (centres undefined),-0.3,53.4,9.8,4.0,5.2,6456,-4.9
CNC(=S)N1N=C(c2ccccc2)CC1c1ccc(Br)cc1 (centres undefined),-7.5,-22.6,2.0,2.9,2.4,23866*,-12.9
CC(=O)NC1CC2CCCC(C1)N2S(=O)(=O)c1cccc(F)c1 (centres undefined),0.7,8.4,-6.3,2.2,2.1,9321,-0.8
CSc1ccc(Cl)c(C(=O)N(C)CC(=O)Nc2ccc(N3CCOCC3)cc2)c1,-3.7,-20.0,-12.8,2.0,3.4,5055,7.1
Cc1cc(C)c2ccc(C(=O)O)nc2c1O,-16.2,-7.1,3.4,2.2,8.7,4493,13.0

# Six entries out of the list, arranged by length of the SMILES, descending.
SMILES,BJeLR lethal,PrP UTR inh,Mtb hypoxia rep,Mtb hypoxia rep growth,Sa RN4220 lethal,Autofluor counter,Sa ugtP lethal
Cn1cccc1C(=O)NC(=O)COC(=O)c1ccc(S(C)(=O)=O)c([N+](=O)[O-])c1,.,12.1,2.2,9.8,-5.9,3874,-2.6
CCOC(=O)C1CCN(C(=O)Cn2nc(C)n3c(cc4cc(F)ccc43)c2=O)CC1,1.7,0.3,-3.8,-2.2,4.3,5668,5.4
COc1ccc(-n2nc3c(c2NC(=O)COc2ccccc2)CS(=O)C3)cc1 (centres undefined),2.4,-2.0,9.8,3.9,1.4,4210,2.6
O=C(Nc1ccc(-c2cn3ccccc3n2)cc1)c1ccc(Cl)cc1,1.7,-19.5,.,.,2.4,4747,-14.6
CNC(=S)N1N=C(c2ccccc2)CC1c1ccc(Br)cc1 (centres undefined),-7.5,-22.6,2.0,2.9,2.4,23866*,-12.9
Cc1cc(C(=O)Nc2ccc(Br)cc2)c2ccccc2n1,-2.2,-35.2,8.4,0.0,3.4,3251,1.4
